High-throughput results: PubChem, Broad Institute
Tgondii IFNg: T. gondii growth inhibition under IFN-gamma. Toxoplasma gondii growth in IFN-gamma-treated host cells; hits give low values; reference of the scale not given here. activity change, negative = inhibition, %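 (about 20 µM by stock and volumes)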. hit rate 3.8% among 69,000. AID 1259416;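 active means below -70%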;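 further: host cells are HeLa cells infected with Toxoplasma gondii; parasite growth read as luciferase light; one replicate is shown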
Numbers without * were called inactive; & = joins results of further samples. This is a subset; the hit share may differ from the screen's.

The opening two records, to show the layout:
SMILES | Tgondii IFNg
C=CCSCC1Nc2cc(Cl)c(S(N)(=O)=O)cc2S(=O)(=O)N1 (stereo not given) | -14.9
C[C@@H]1CN([C@H](C)CO)C(=O)c2ccccc2-c2ccccc2CO[C@@H]1CN(C)C(=O)CCC(F)(F)F | 1.5

This part in full (from the top)
SMILES | Tgondii IFNg
C=CCSCC1Nc2cc(Cl)c(S(N)(=O)=O)cc2S(=O)(=O)N1 (stereo not given) | -14.9
C[C@@H]1CN([C@H](C)CO)C(=O)c2ccccc2-c2ccccc2CO[C@@H]1CN(C)C(=O)CCC(F)(F)F | 1.5
CC(=O)N[C@H](Cc1c[nH]c2ccccc12)C(=O)OCc1cc(C(F)(F)F)cc(C(F)(F)F)c1 | 10.9
CC(C)c1nc2cc(-c3ccc(S(C)(=O)=O)cc3)ccc2o1 | 126.9
N#Cc1cccc(C(=O)N2CCC3C2CC(=O)N3Cc2ccncc2)c1 (stereo not given) | -30.8
CN(Cc1noc(-c2ccccc2)n1)C(=O)CCC(=O)NC1CCCC1 | -13.8
CN(CCCNC1CCC2(CCNCC2)CC1)c1ccccc1 | -20.7
O=C1CCC2(CCC(NCc3ccccn3)CC2)N1 (stereo not given) | -3.4
O=C(NCCN1CCCCC1)c1c(O)c2ccccc2[nH]c1=O | 27.2
O=C(Cn1ncc2c(N3CCN(c4ccccn4)CC3)ncnc21)NCc1ccccc1Cl | -92.3*
CO[C@@H]1CN(C)C(=O)c2cc(NS(C)(=O)=O)ccc2OC[C@@H](C)N(C(=O)C2CCOCC2)C[C@@H]1C | 13.0
O=S(=O)(Nc1ccccc1SCc1ccc2nonc2c1)c1cccs1 | 3.7
COc1cccc(NC(=O)C(=O)NCCc2csc(-c3ccc(Cl)cc3)n2)c1 | -8.5
CO[C@H](CN(C)C(=O)C1CCOCC1)[C@H](C)CN([C@@H](C)CO)S(=O)(=O)c1ccccc1 | -32.3
COc1ccccc1C(=O)Nc1ccc2c(c1)C(=O)N(C)C[C@@H](OC)[C@@H](C)CN(C(C)=O)[C@@H](C)CO2 | 23.0
O=C(NC1CC(=O)N(Cc2ccccc2)C1)c1cc2n(n1)CCNC2 (stereo not given) | -4.6
Cc1ccc(CSC2=Nc3ccccc3C3=NC(CC(=O)NCc4ccco4)C(=O)N23)cc1 (stereo not given) | 23.8
Cc1nn(CC(=O)NCC2CCCCC2)c(=O)c2nc(-c3ccccc3)sc12 | -23.9
OCCCNCc1[nH]c2ccccc2c1Cl | -46.3
COc1ccc(OCC2CCN(C(=O)C3CC(=O)N(Cc4cccnc4)C3)CC2)cc1 (stereo not given) | -6.5
Cc1nn(C)c(C)c1CC(C)NC(=O)c1ccc(Cl)c(N2CCCCC2)c1 (stereo not given) | 1.1
CCn1c(C2CCCN(Cc3cccc4nonc34)C2)n[nH]c1=O (stereo not given) | 21.7
COCC(=O)Nc1ccc2c(c1)C(=O)N(C)C[C@@H](OC)[C@@H](C)CN(C(=O)c1ccncc1)[C@H](C)CO2 | 30.8
COc1ccc2c3c(n(C)c2c1)[C@H](CO)N(CC1CC1)CC31CN(C(=O)Nc2ccc(F)cc2F)C1 | 105.8
CCOCc1cc(-c2nccn2-c2cccnc2)ccc1OC | -3.1
COc1ccc(CCC(=O)N2CCCC([C@@H]3C[C@H](C(F)(F)F)n4ncnc4N3)C2)cc1 (stereo not given in full) | 13.4
CN(C)C(=O)c1cc2c(nc1NCC1CC1)CCN(Cc1cnn(C)c1)CC2 | -53.0
CCOc1ccc(S(=O)(=O)NCCc2sc(-c3ccc(OC)c(OC)c3)nc2C)cc1 | 288.0
c1ccn(-c2ncnc3sc4c(c23)CCCC4)c1 | 21.3
Cc1occc1C(=O)N1CCCn2c(nc(Cn3ccnc3)cc2=O)C1 | -2.0
COCCCN1CCC(NC(=O)c2cc(Cl)c(N)c3c2OCC3)CC1 | 0.5
COc1ccccc1CNC(=O)CN1CCCC1c1ccccc1C (stereo not given) | -6.4
COC(=O)c1cc(C)nc2c1c(=O)n(Cc1nc(-c3ccc(OC(C)C)cc3)oc1C)c(=O)n2C | 13.1
CCC/C=C/c1ccccc1C(=O)NCC | -3.1
N[C@@H](CSCc1c(F)cccc1Cl)C(=O)O | 34.6
CC(C)NC(=O)[C@H]1C[C@@H]2CCN(Cc3cnn(C)c3)C[C@@H]2O1 | -4.0
Cc1nc(C(=O)N2CCC3(CC2)Nc2ccccc2NC3=O)cs1 | -15.0
CCCc1nc(NCc2cc(-c3ccc(F)cc3)on2)c2cnn(C)c2n1 | -12.0
CS(=O)(=O)NC[C@@H]1OC[C@@H]2CCN(C(=O)c3ccnnc3)C[C@@H]21 | 30.2
COc1ccc2c(c1)NC1(CCN(S(=O)(=O)c3c(C)nn(C)c3C)CC1)c1cccn1-2 | 1.4
COc1ccc2c3c([nH]c2c1)[C@H](CO)NCC31CN(C(=O)Nc2ccc3c(c2)OCO3)C1 | 1.5
Nc1nc(-c2ccncc2)ncc1S(=O)(=O)c1ccc(C(F)(F)F)cn1 | 18.6
Cc1ncc(CO)c(CN2CCN(c3nsc4ccccc34)CC2)c1O | -0.2
Cc1ccc2c(c1)NC1(CCN(C(=O)Nc3ccccc3C)CC1)c1cccn1-2 | 97.6
CNC(=O)c1c(-c2ccc(F)cc2)oc2cc(N(CCO)S(C)(=O)=O)c(C3CC3)cc12 | 15.3
O=C(CCc1ccccc1)N1CCC2(CC1)Nc1cccnc1NC2=NC1CCCC1 | 10.0
Cc1ccc(C(=O)N2C[C@H]3C[C@H](O)[C@H](O)C[C@H]3C2)c(=O)[nH]1 | -38.2
O=C(C[C@@H]1C=C[C@@H](NC(=O)CCN2CCCCC2)[C@H](CO)O1)Nc1nccs1 | -13.1
C[C@@H]1CN([C@H](C)CO)C(=O)c2ccccc2-c2ccccc2CO[C@H]1CN(C)C(=O)[C@H](Cc1ccccc1)N(C)C | -24.9
CCOC(=O)C1CCN(S(=O)(=O)c2cccs2)CC1 | -15.7
Cc1nnc(SCC(=O)NC2CCCCC2)[nH]c1=O | -4.7
CC(=O)N1C2CCN(Cc3ccc(C)s3)CC2C[C@H]1CN(C)C (stereo not given in full) | 0.4
COc1ccc(CC(=O)NC2CC3(CCOCC3)Oc3ccccc32)cc1OC (stereo not given) | 24.8
Cc1cc(S(=O)(=O)N2CCC(NC(=O)Cc3ccccc3)CC2)c(Cl)cc1Cl | -0.1
CO[C@@H]1CN(C)C(=O)c2ccc(NC(=O)c3cc(C)on3)cc2OC[C@@H](C)N(S(=O)(=O)c2cccc(F)c2)C[C@H]1C | 79.2
CO[C@@H]1CN(C)C(=O)c2ccc(NC(C)=O)cc2OC[C@@H](C)N(C(=O)c2cnccn2)C[C@@H]1C | 280.3
CCCNC(=O)Nc1ccc2c(c1)C(=O)N(C)C[C@@H](OC)[C@@H](C)CN(C)[C@@H](C)CO2 | 21.3
COc1cccc(F)c1-c1c(-c2ccccc2)ncn1C(C)c1cnn(C)c1 (stereo not given) | -3.6
CCCOCCn1nc(C2CCCNC2)n(CC)c1=O (stereo not given) | -48.4
Cn1c(SCc2cc(=O)[nH]c(C(C)(C)C)n2)nnc1C(F)(F)F | 21.0

Other results follow.
SMILES | Tgondii IFNg
COCC1C(=O)N(CC2CC2)CC12CCN(Cc1nccs1)CC2 (stereo not given) | 24.9
CCc1nc(OCC(=O)Nc2ccccc2CC)c2ccccc2n1 | 10.8
Cc1ccc(CN2CCO[C@H]3[C@H]2CC[C@H]3OCC(=O)N2CCCC2)o1 | 4.3
CCCCC(SC1=Nc2ccccc2C2=NC(Cc3c[nH]c4ccccc34)C(=O)N12)C(=O)OCC (stereo not given) | 4.7
COc1cc(NC(=O)Nc2ccc(-c3nc(-c4ccc(C)cc4C)co3)cc2)cc(OC)c1 | 10.8
C=CCOCc1cncc2c1CCN(C(=O)c1ccncc1)C2 | -14.5
C[C@H]1CN([C@@H](C)CO)C(=O)CCCn2cc(nn2)CO[C@H]1CN(C)C(=O)NC1CCCCC1 | -11.8
O=C(O)c1ccc(/C=C2/SC(=S)N(c3cccc(C(F)(F)F)c3)C2=O)cc1 | 7.5
C(#CCN1CCCCC1)COC(c1ccccc1)c1ccccc1 | -1.4
Cc1cccc(SC2CCN(Cc3ncccc3C(=O)O)CC2)c1 | -24.2
COC(=O)c1cc(-c2ccc(OC)c(OC)c2)on1 | 3.4
CCOc1ccc2nc(-c3nccn3C(C)Cn3cncn3)ccc2c1 (stereo not given) | -51.9
CCn1c(C2CCCN(Cc3cc(=O)c4ccccc4[nH]3)C2)n[nH]c1=O (stereo not given) | 6.4
Cc1cccc(-c2cn(CCCn3nnc4ccccc43)nn2)n1 | 6.3
Cc1oc(-c2ccc(NC(=O)c3ccc(Br)o3)cc2)nc1Cn1cccn1 | 68.9
Cc1nc(CN(C)Cc2c(C)n(C)n(-c3ccccc3)c2=O)no1 | 6.5
Cc1cc(C)n(Cc2nc(-c3ccc(NC(=O)c4cccc(N(C)C)c4)cc3)oc2C)n1 | -56.0
CCC(=O)N1C[C@@H](C)[C@@H](OC)CN(C)C(=O)c2cc(NC(=O)Nc3ccc(Cl)cc3)ccc2OC[C@@H]1C | -19.1
COc1cccc(NC(=O)N2CC(=O)N3[C@@H](CO)[C@H](c4ccc(C#CCC5CCCC5)cc4)[C@@H]3C2)c1 | -41.8
Cc1cc(C[C@@H]2CCC[C@H]2NCc2c(C)nn(-c3ccc(F)cc3)c2C)on1 | 76.5
CC(Cc1cnccn1)NC(=O)C1(N(C)Cc2ccccc2)Cc2ccccc2C1 (stereo not given) | 11.1
CCNc1ncc(C(=O)N(C)Cc2ccc(OC)c3ncccc23)cn1 | -13.3
Cc1nnsc1C(=O)N1Cc2cnn(Cc3ccc(F)cc3)c2C1 | -22.8
CCCN1CC(NC(=O)C(=O)Nc2ccccc2Cl)CC1=O (stereo not given) | -8.1
CCOC(=O)C1CCC(CNC(=O)N2CCC3(CC2)Nc2ccccc2-n2cccc23)CC1 (stereo not given) | 161.6
COC(=O)c1[nH]ncc1CN1CCN(c2ccccc2OC)C(C)(C)C1 | 7.8
COc1cc(NC(=O)c2cc(C(C)C)no2)ccc1NC(=O)CC(C)C | -7.8
CNC(=O)c1ccc(-c2cccc3ccccc23)o1 | 21.0
CCN1CCC2(CN(c3ncccn3)CC23CCN(C(=O)c2cccnc2)CC3)C1=O (stereo not given) | 153.0
COc1ccc2c3c(n(C)c2c1)[C@@H](CO)N(C(C)=O)CC31CCN(Cc2ccccc2OC)CC1 | -18.6

Rewritten as labelled records: entries from further up.
COc1ccc2c(c1)NC1(CCN(S(=O)(=O)c3c(C)nn(C)c3C)CC1)c1cccn1-2
- Tgondii IFNg: 1.4
CCn1c(C2CCCN(Cc3cccc4nonc34)C2)n[nH]c1=O (stereo not given)
- Tgondii IFNg: 21.7
Cc1nnsc1C(=O)N1Cc2cnn(Cc3ccc(F)cc3)c2C1
- Tgondii IFNg: -22.8
COc1cc(NC(=O)Nc2ccc(-c3nc(-c4ccc(C)cc4C)co3)cc2)cc(OC)c1
- Tgondii IFNg: 10.8

New compounds follow.
SMILES | Tgondii IFNg
COCC1CC2(CCN(C(=O)c3cnccn3)CC2)CN1c1ncccn1 (stereo not given) | -8.1
CNCCn1c(=O)c2cc(OC)c(OC)cc2c2cnc3cc4c(cc3c21)OCO4 | -79.9*
O=S(=O)(c1cccc(Cl)c1)N1[C@@H]2CNC[C@H]1C2c1ccc(-c2cccnc2)cc1 (stereo not given in full) | 15.5&-10.1
CN1C(=O)C2(CCN(S(C)(=O)=O)CC2)C1c1ccccc1 (stereo not given) | 194.0
COc1ccc(N2C(=O)CC2(/C=C/c2ccccc2)C(=O)NC2CCCCC2)cc1 (stereo not given) | 3.8
CN1C[C@]23C=C[C@H](O2)[C@H](C(=O)NC2CCC(n4cnnc4)CC2)[C@@H]3C1=O (stereo not given in full) | 14.5
COCC(=O)N1CC(=O)N2[C@H](CO)[C@H](c3ccc(-c4ccccc4F)cc3)[C@@H]2C1 | 7.6
c1cc(-n2cnnc2)ccc1OCC1CCCO1 (stereo not given) | 7.9
CN(Cc1nccn1Cc1ccccc1)C(=O)CC1COCCN1 (stereo not given) | -1.7
CC(C)NC(=O)N(C)C[C@@H]1Oc2ccc(NC(=O)c3ccncc3)cc2C(=O)N([C@@H](C)CO)C[C@H]1C | 16.4
Fc1ccc(-c2cnc3n2CCNC32CCN(C3CCCC3)CC2)cc1 | 6.7
Cc1nc(-c2ccc(Cl)cc2)sc1CCNC(=O)C(C)(C)C | 132.6
CN1C(=O)c2cc(NC(=O)c3cccc(Cl)c3)ccc2OC[C@@H]2O[C@@H](CC(=O)NC3CCCCC3)CC[C@H]21 | -8.8
Cc1ccc(C2(O)CCN(C(=O)Cc3noc4ccccc34)CC2)nc1 | 11.6
C=CCc1cc(CN2CCCN(C(=O)c3ccco3)CC2)ccc1O | 1.3
CN(C)C(=O)[C@H]1C[C@@H]2OCC[C@@H]2N(Cc2ccoc2)C1 | -43.5
c1csc(-c2nc(N3CCCCC3)ncc2-c2ccncc2)c1 | -97.8*
CN1CCNC(=O)C12CCN(C(=O)C[C@@H]1C[C@@H]3C=C[C@H]1C3)CC2 | -0.2
COc1ccc(CC(=O)NCC2Cn3nncc3CO2)cc1 (stereo not given) | 26.8
CC(=O)N1CCC2(CC1)CC(NS(=O)(=O)C1CC1)c1ccccc1O2 (stereo not given) | 6.8
O=C(C[C@@H]1CC[C@H]2NC[C@H](O)COC[C@@H]2O1)Nc1ccc(-c2ccccc2)cc1 | -13.0
Cc1ccc2c(c1)NC1(CCN(C(=O)Cc3ccc(F)cc3)CC1)c1cccn1-2 | 37.9
FC(F)(F)c1cnc(NN2C3CSC2CS3)c(Cl)c1 | 133.2
CCN1c2cc(C)ccc2-n2cccc2C12CCN(C(=O)Nc1ccc3c(c1)OCCO3)CC2 | 3.7
Cc1nc(-c2ccccc2)sc1CCNC(=O)C(=O)Nc1ccccc1F | -13.6
CCn1ncc2c1C(COC)CN(C(=O)C1=CCCC1)C2 (stereo not given) | -4.1
COc1cc2c(cc1CN1CCC(NC(C)=O)(c3ccc(F)cc3)CC1)CCC2 | -10.7
